LANA-nucl inh: LANA-nucleosome interaction inhibition | FITC-LANA1-23 / chicken nucleosome fluorescence polarization; active compounds read low | z-score (test concentration not listed) | 51,000 compounds, 0.3% hits | AID 720717;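 active = both repeat wells score below -2 in polarization z-score versus plate sample wells, excluding overly bright wells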;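 also: 100 nL library stock added to about 30 µL; numbers are from one replicate; some results filed as inactive read as strong as hits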
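Assay system: purified chicken nucleosomes with FITC-labelled LANA N-terminal peptide (1-23) / Probe or stimulus: 50 nM FITC-LANA1-23 probe / Compound dosing: pin-transferred compound, 100 nL / Times: compound with peptide–nucleosome mix 10–45 min at room temperature / Technique: fluorescence polarization, 480 nm excitation, 535 nm parallel and perpendicular emission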
BasE inh: BasE siderophore biosynthesis inhibition. purified BasE, fluorescence polarization binding displacement. inhibition, % (concentration not given with the values). 84,000 compounds, 0.1% hits;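 active = both replicates above 25% with normal brightness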;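 also: 0% = negative plate control signal and 100% = positive plate control signal; stock transfer was 100 nL into about 30 µL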
Active calls of the source: *; & = joins results of further samples. Not all compounds are listed; the hit share may differ from the screen's.

How did CC(=NCCN1CCN(C(=O)c2ccccc2)CC1)c1c(C)[nH]n(-c2nc3ccccc3s2)c1=O do in these assays?
LANA-nucl inh: -0.7; BasE inh: 0.3

What do the screens show for `c1csc(CNC2CC2)c1`?
LANA-nucl inh: 0.18; BasE inh: -1.2

Results for CN1/C(=C\C=N\O)C(C)(C)c2ccccc21 ?
BasE inh: -0.8

Results for O=S(=O)(c1ccc2c(c1)CCO2)N1CCCN(c2nccc(C(F)(F)F)n2)CC1 ?
LANA-nucl inh: -0.32; BasE inh: 0.5

What do the screens show for `CCN(CC)C(=O)c1cccc(NC(C)=O)c1`?
BasE inh: -1.0

Results for CS(=O)(=O)N(CC(=O)NCc1ccccc1)c1cc(C(F)(F)F)ccc1Cl ?
BasE inh: 1.1

What do the screens show for `CN(C1CCCCC1)S(=O)(=O)c1ccc(CN2C(=O)c3cccnc3C2=O)cc1`?
LANA-nucl inh: 0.9; BasE inh: 0.3

What do the screens show for `Cc1ccc(C)c(NC(=O)CN2C(=O)C3CC=CCC3C2=O)c1` (stereo not given)?
BasE inh: 3.2

Results for COC(=O)C1=C(NC(=O)c2ccc(N3C(=O)CCC3=O)cc2)CCS1 ?
LANA-nucl inh: 1.9; BasE inh: -6.3

Results for Cc1ccc(NC(=O)CN2C(=O)S/C(=C/c3ccc4c(c3)n(C)c(=O)n4C)C2=O)cc1C ?
LANA-nucl inh: 0.67; BasE inh: 0.7

What do the screens show for `Cc1cc(C(=O)CSc2nncs2)c(C)n1CC(F)(F)F`?
BasE inh: -4.3

How did C/C(=N\N)c1cc(C(=O)NN)c(=O)[nH]c1C do in these assays?
LANA-nucl inh: 1.4; BasE inh: -2.5

How did NC1=NC(=Nc2cccc(C(F)(F)F)c2)c2ccccc21 do in these assays?
BasE inh: -2.7

Results for Cc1c(C(=O)NCCC(C)C)oc2ccc(Br)cc12 ?
BasE inh: -1.9

Results for CCOC(=O)c1sc(NC(=O)CSc2ncccn2)nc1C ?
LANA-nucl inh: 0.99; BasE inh: -0.5

What do the screens show for `O=C(NCC(c1ccco1)S(=O)(=O)c1ccccc1)Oc1ccccc1` (stereo not given)?
LANA-nucl inh: -0.78; BasE inh: 0.6

How did COc1ccc(Oc2cnc3ccccc3n2)cc1 do in these assays?
LANA-nucl inh: 0.77

How did CCC(=O)Nc1nonc1-c1ccc(C)cc1 do in these assays?
LANA-nucl inh: 1; BasE inh: -0.8

Results for CC1CCC(C(C)C)C(OC(=O)Cn2nnc3c(cnn3-c3ccccc3)c2=O)C1 (stereo not given) ?
LANA-nucl inh: -0.39; BasE inh: 0.8

How did Cn1c(SCC#N)nnc1-c1ccccc1 do in these assays?
LANA-nucl inh: 0.45; BasE inh: -0.6

What do the screens show for `CC1C=CCC2C(=O)N(c3cccc(Cl)c3)C(=O)C12` (stereo not given)?
BasE inh: 1.5

How did NS(=O)(=O)c1cc2c(cc1Cl)NC(CSCc1ccccc1)=NS2(=O)=O do in these assays?
LANA-nucl inh: 0.31&-0.085&-0.29; BasE inh: -1.3&-0.2

How did CCOC(=O)Cc1cc(=O)[nH]c(=O)[nH]1 do in these assays?
LANA-nucl inh: -1; BasE inh: -0.2

Results for CNC(=O)C12N=CNN=C1N(C)C(=O)N2C (stereo not given) ?
LANA-nucl inh: -0.24; BasE inh: 1.0

What do the screens show for `Cc1ccccc1NC(=O)Cn1c(C(F)(F)F)nc2ccccc21`?
LANA-nucl inh: 0.39

What do the screens show for `CN1c2ccccc2C(=O)NC1C1CC=CCC1` (stereo not given)?
BasE inh: -4.2

What do the screens show for `CCN(CC)C(=O)COc1ccccc1C(=O)NCc1ccccc1`?
BasE inh: -1.4

Results for Nc1ccc2c(c1)ncn2C1CCCCC1 ?
LANA-nucl inh: 0.049; BasE inh: -9.2

Results for O=C(O)CCCN=Cc1c(O)c2ccccc2oc1=O ?
LANA-nucl inh: -0.52; BasE inh: 13

What do the screens show for `CCCn1c(SCc2cc3c(cc2Br)OCCO3)n[nH]c1=O`?
BasE inh: 5.4

How did Cn1c(N)c(C(=O)CN2C(=O)c3ccccc3S2(=O)=O)c(=O)n(C)c1=O do in these assays?
BasE inh: 1.5

Results for C[n+]1cccc(O)c1I ?
LANA-nucl inh: 0.84; BasE inh: -0.2

What do the screens show for `COc1ccc(NS(=O)(=O)c2ccc(N)cc2)nn1`?
LANA-nucl inh: -0.056&1.3&0.019; BasE inh: -2.2&1.2

Results for CCCCc1ccc(NC(=O)COC)cc1 ?
LANA-nucl inh: -0.11; BasE inh: 2.5

What do the screens show for `CN/C(=C\C(=O)C(F)(F)F)c1ccccc1`?
BasE inh: 1.0

What do the screens show for `O=C(c1ccccc1)n1nc(-c2cccnc2)nc1NCc1cccs1`?
LANA-nucl inh: -0.72; BasE inh: 1.0

What do the screens show for `COC(=O)C1=C(NC(=O)c2ccccc2C)CCS1`?
BasE inh: -0.1

Results for C/C(CN1C(=O)c2ccccc2C1=O)=N\Nc1ccccc1Cl ?
BasE inh: -0.4

How did Cc1cc(OCCCN2CCCC2)ccc1C(C)C do in these assays?
LANA-nucl inh: 0.34; BasE inh: 0.5

How did Cc1nnc(NC(=O)CSc2nnc(CNC(=O)c3ccco3)n2-c2cccc(C)c2C)s1 do in these assays?
LANA-nucl inh: 1.1; BasE inh: -1.9

What do the screens show for `CN(C)c1ccc(/C=C(/C#N)c2ccc(C#N)cc2)cc1`?
LANA-nucl inh: 1.2; BasE inh: -13

How did CC(=O)N1CCOCCN(C(C)=O)CCOCC1 do in these assays?
BasE inh: 0.6

How did COC(=O)c1sccc1NC(=O)C(C)(C)C do in these assays?
LANA-nucl inh: -0.92; BasE inh: 1.2

Results for NC(=O)CSc1nnc(-c2ccccc2)o1 ?
LANA-nucl inh: -0.23; BasE inh: -0.5

What do the screens show for `CCc1ccc2c(CSc3nnc(-c4ccco4)o3)cc(=O)oc2c1`?
BasE inh: -4.3

What do the screens show for `CCOC(=O)c1cnn(-c2nc(C)cc(C)n2)c1N`?
BasE inh: -0.1

How did O=C1C=C(c2ccc(Cl)cc2)OC2(CCCC2)O1 do in these assays?
LANA-nucl inh: 0.17; BasE inh: 4.2

Results for Cn1c(COc2ccccc2Br)nc2ccccc21 ?
LANA-nucl inh: 0.48; BasE inh: -0.1

How did Nn1c(SCc2nnc(-c3ccccc3)o2)nnc1-c1ccncc1 do in these assays?
BasE inh: -0.4

Results for O=C(CNC(=O)c1ccccc1Cl)Nc1ccc(S(=O)(=O)N2CCOCC2)cc1 ?
BasE inh: -0.4

Results for CCn1c(Cc2ccc(OC)cc2)nnc1SCC(=O)NC1=NCCS1 ?
LANA-nucl inh: 1.4; BasE inh: 0.0

Results for COc1ccc(-c2nc(COc3ccc(Cl)cc3Cl)no2)cc1 ?
LANA-nucl inh: -0.3; BasE inh: 5.0

Results for Cc1ccc(N=C2SCC(=O)N2C)cc1 ?
BasE inh: -2.0

Results for NC(=O)NC(CC(=O)N1CCc2ccccc2C1)c1ccc(Cl)cc1 (stereo not given) ?
BasE inh: 2.2

Results for CNC(=O)CSc1nc(-c2ccccc2)cn1N ?
BasE inh: 0.6

Results for N#CC(C#N)=Cc1cccn1CCCn1ccnc1 ?
LANA-nucl inh: 0.17; BasE inh: 0.8

What do the screens show for `CC(CCc1ccccc1)Nc1ccc2c(c1)OCO2` (stereo not given)?
LANA-nucl inh: 0.92; BasE inh: -0.2

How did CC(C(=O)N1CCCCC1)N(C)CC(=O)Nc1ccc(Cl)c(C(F)(F)F)c1 (stereo not given) do in these assays?
BasE inh: 0.8

Results for CN(C)c1ccc(/C=N/S(=O)(=O)c2cccs2)cc1 ?
LANA-nucl inh: -0.035; BasE inh: 3.7

What do the screens show for `c1cc(CSC2=NCCS2)nc(CSC2=NCCS2)c1`?
LANA-nucl inh: -0.67; BasE inh: 0.8

How did CN(C)/N=C/c1ccc(C(O)(c2nc3ccccc3s2)C(F)(F)F)o1 (stereo not given) do in these assays?
BasE inh: -0.5

Results for CCOC(=O)c1c(S(=O)(=O)Nc2ccc(Cl)cc2)c(C)n(-c2ccccc2)c1C ?
BasE inh: -1.0

Results for CC1CCCC(C)N1C(=O)COC(=O)C1CCCCC1 (stereo not given) ?
BasE inh: 0.8

How did C[C@]12CCC(=O)C[C@H]1CC(=O)[C@@H]1[C@@H]2CC(=O)[C@]2(C)CCC[C@@H]12 (tested in a mixture with another compound) do in these assays?
LANA-nucl inh: 0.062; BasE inh: -3.6

Results for CCN(Cc1ccncc1)S(=O)(=O)c1cc(/C=C/C(=O)O)cc(OC)c1OC ?
BasE inh: -1.0

What do the screens show for `Cn1c(C(=O)O)c(CNCCc2ccco2)c2ccccc21`?
LANA-nucl inh: -1.5; BasE inh: -0.6

How did CC(C)=CC(=O)NCCc1ccccc1 do in these assays?
LANA-nucl inh: 0.05; BasE inh: -1.0

How did CCN(CC)c1ncc2c(SCC(N)=O)nc(SCC(N)=O)nc2n1 do in these assays?
LANA-nucl inh: 0.018; BasE inh: 0.7

How did CC(=O)N1CCN(C(=O)COc2ccc(NC(=O)c3ccccc3)cc2)CC1 do in these assays?
BasE inh: 1.2

How did CC1=NN(c2cccc3ccccc23)C(=O)C1 do in these assays?
LANA-nucl inh: -0.3; BasE inh: -1.7

What do the screens show for `N#Cc1sc2ncc3c(c2c1N)CCCC3`?
LANA-nucl inh: -0.75; BasE inh: 1.2

Results for CCCCNC(=O)c1cc(C)nc2ccccc12 ?
BasE inh: -1.3

How did O=C(O)CCNc1nc(-c2ccccc2)c2cc(Br)ccc2n1 do in these assays?
BasE inh: 2.3

What do the screens show for `CCOC(=O)c1c(/C=C2\C(=O)Nc3ccccc32)c(C)n(-c2ccccc2)c1C`?
BasE inh: 2.8

Results for O=C(CC12CC3CC(CC(C3)C1)C2)NO ?
BasE inh: -0.3

What do the screens show for `O=C(Oc1ccc(-c2nnco2)cc1)c1ccccc1OC(F)F`?
BasE inh: 0.4

What do the screens show for `COc1ccc(Cl)cc1NC(=O)C1CCCN(c2cc(C)nc3ncnn23)C1` (stereo not given)?
LANA-nucl inh: 0.44; BasE inh: -1.7

How did CC(C)(C)CC(C)(C)c1ccc(O)c(Cc2ccc(Cl)cc2Cl)c1 do in these assays?
LANA-nucl inh: -0.05; BasE inh: -0.4

What do the screens show for `Cc1ccc(C(=O)NC(NCc2ccco2)(C(F)(F)F)C(F)(F)F)cc1`?
BasE inh: 0.7

What do the screens show for `COC(=O)CN(c1ccccc1Cl)S(C)(=O)=O`?
LANA-nucl inh: 0.54; BasE inh: -0.7

Results for Oc1ccc(C=NCc2ccco2)cc1 ?
LANA-nucl inh: -0.76; BasE inh: 2.7

Results for CC1=C(C(=O)OC2CCCN(C)C2)C2(O)C(=O)c3ccccc3C2(O)N1 (stereo not given) ?
BasE inh: 1.6

Results for CSc1nnnn1-c1ccc(C(N)=O)cc1 ?
LANA-nucl inh: -0.51; BasE inh: 3.3

How did Cc1onc(-c2ccccc2Cl)c1C(=O)N1CC(C)CC(C)C1 (stereo not given) do in these assays?
BasE inh: 1.1

How did Cc1ccc(-c2nn(-c3ccccc3)cc2/C=C/C(=O)OCC(N)=O)o1 do in these assays?
BasE inh: -2.2

How did C=CCn1c(COc2cccc(C)c2)nnc1SCC(=O)N1CCNC1=O do in these assays?
BasE inh: -2.8

What do the screens show for `COc1ccc(C2=NC(=O)/C(=C\c3cccc(F)c3)O2)cc1`?
BasE inh: 0.8

Results for NC[C@@H]1O[C@H](O[C@@H]2[C@@H](CO)OC(O[C@@H]3[C@@H](O)[C@H](N)C[C@H](N)[C@H]3O[C@H]3O[C@H](CO)[C@@H](O)[C@H](O)[C@H]3N)[C@@H]2O)[C@H](N)[C@@H](O)[C@@H]1O (stereo not given in full) ?
LANA-nucl inh: -0.15; BasE inh: 0.4

How did CCOC(=O)C1CCN(c2ccccc2CN2CCCc3cc(C)ccc32)CC1 do in these assays?
BasE inh: 0.6

Results for N#Cc1c(Nc2ccccc2)sc(C(=O)c2cccs2)c1N ?
LANA-nucl inh: -0.014; BasE inh: 0.5

Filtered by structure: the compounds so far containing a Cl atom (14)
Results for CS(=O)(=O)N(CC(=O)NCc1ccccc1)c1cc(C(F)(F)F)ccc1Cl ?
BasE inh: 1.1

What do the screens show for `CC1C=CCC2C(=O)N(c3cccc(Cl)c3)C(=O)C12` (stereo not given)?
BasE inh: 1.5

How did NS(=O)(=O)c1cc2c(cc1Cl)NC(CSCc1ccccc1)=NS2(=O)=O do in these assays?
LANA-nucl inh: 0.31&-0.085&-0.29; BasE inh: -1.3&-0.2

Results for C/C(CN1C(=O)c2ccccc2C1=O)=N\Nc1ccccc1Cl ?
BasE inh: -0.4

How did O=C1C=C(c2ccc(Cl)cc2)OC2(CCCC2)O1 do in these assays?
LANA-nucl inh: 0.17; BasE inh: 4.2

Results for O=C(CNC(=O)c1ccccc1Cl)Nc1ccc(S(=O)(=O)N2CCOCC2)cc1 ?
BasE inh: -0.4

Results for COc1ccc(-c2nc(COc3ccc(Cl)cc3Cl)no2)cc1 ?
LANA-nucl inh: -0.3; BasE inh: 5.0

Results for NC(=O)NC(CC(=O)N1CCc2ccccc2C1)c1ccc(Cl)cc1 (stereo not given) ?
BasE inh: 2.2

How did CC(C(=O)N1CCCCC1)N(C)CC(=O)Nc1ccc(Cl)c(C(F)(F)F)c1 (stereo not given) do in these assays?
BasE inh: 0.8

Results for CCOC(=O)c1c(S(=O)(=O)Nc2ccc(Cl)cc2)c(C)n(-c2ccccc2)c1C ?
BasE inh: -1.0

What do the screens show for `COc1ccc(Cl)cc1NC(=O)C1CCCN(c2cc(C)nc3ncnn23)C1` (stereo not given)?
LANA-nucl inh: 0.44; BasE inh: -1.7

How did CC(C)(C)CC(C)(C)c1ccc(O)c(Cc2ccc(Cl)cc2Cl)c1 do in these assays?
LANA-nucl inh: -0.05; BasE inh: -0.4

What do the screens show for `COC(=O)CN(c1ccccc1Cl)S(C)(=O)=O`?
LANA-nucl inh: 0.54; BasE inh: -0.7

How did Cc1onc(-c2ccccc2Cl)c1C(=O)N1CC(C)CC(C)C1 (stereo not given) do in these assays?
BasE inh: 1.1
